CtBP-E1A inh – qHTS Assay for Inhibitors of the CtBP/E1A Interaction; AlphaScreen GST-E1A/His-CtBP binding, 1536-well; hits give low values; control for the full effect not named in the record; activity change, % (test concentration not listed); CtBP / adenovirus E1A interaction (AlphaScreen); 340,000 compounds, 0.49% hits; in the data active means activity change below about -65%; inconclusive means about -30% to -65%; inactive means above about -30%; note: % is set by controls: 0 for no effect and ±100 for the full control effect
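Homogeneous bead-based format: GST-tagged E1A captured on glutathione donor beads, His-tagged CtBP on nickel acceptor beads; compounds precede bead addition by 2 h at 37 °C.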
D2 agonist – Beta-Arrestin HTS for Positive Allosteric Modulators of the Human D2 Dopamine Receptor: Agonists; DiscoveRx PathHunter D2 beta-arrestin, luminescence, 90 min; 100% = 57 uM dopamine signal; D(2) dopamine receptor (Homo sapiens), P14416; activation, % (no concentration beside the values); AID 624465, 2012; 360,000 compounds, 0.084% hits; in the data active = activation above about 40%; inconclusive = about 15% to 40%; inactive = below about 15%; note: compound concentration not given in the record; the text of the record calls up to 30% inactive
Target sequence (P14416 whole entry, looked up): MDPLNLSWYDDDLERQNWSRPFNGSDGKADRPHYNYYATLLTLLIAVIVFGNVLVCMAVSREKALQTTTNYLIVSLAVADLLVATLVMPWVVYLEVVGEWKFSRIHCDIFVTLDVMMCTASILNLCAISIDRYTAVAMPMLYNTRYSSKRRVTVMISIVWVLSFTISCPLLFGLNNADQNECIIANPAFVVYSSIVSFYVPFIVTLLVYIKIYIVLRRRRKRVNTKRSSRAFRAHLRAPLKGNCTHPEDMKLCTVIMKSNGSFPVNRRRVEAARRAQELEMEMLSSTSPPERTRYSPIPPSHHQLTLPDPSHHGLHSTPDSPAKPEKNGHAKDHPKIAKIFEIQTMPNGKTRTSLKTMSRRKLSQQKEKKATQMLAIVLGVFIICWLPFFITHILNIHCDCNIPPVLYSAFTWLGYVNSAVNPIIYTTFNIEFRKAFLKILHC
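Agonist mode: compounds alone added to overnight-plated D2 PathHunter cells for 90 min at 37 C, with 57 uM final dopamine (EC100) defining full response. Beta-arrestin recruitment detected by chemiluminescent reagent, read after 1 h at ambient temperature.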
Six1-Eya2 inh – qHTS Assay for Inhibitors of the Six1/Eya2 Interaction; AlphaScreen GST-Six1/His-Eya2 binding, biochemical; hits give low values; control for the full effect not named in the record; activity change, % (test concentration not listed); 360,000 compounds, 0.56% hits; AID 651725, 2012; in the data active = activity change below about -65%; inconclusive = about -30% to -65%; inactive = above about -30%; note: % is set by controls: 0 for no effect and ±100 for the full control effect
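Compounds are tested against tagged Six1 and Eya2 proteins bridged by glutathione donor and nickel acceptor beads; after a one-hour incubation at 37 °C without light, AlphaScreen emission is recorded.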
D2 potentiator – Beta-Arrestin HTS for Positive Allosteric Modulators of the Human D2 Dopamine Receptor: Potentiators; DiscoveRx D2 beta-arrestin cells, luminescence, 90 min; 100% = 57 uM dopamine signal; potentiation, % (no concentration beside the values); 360,000 compounds, 0.23% hits; AID 624464, 2012; active = potentiation of 50% or more; inconclusive = 30% to 50%; inactive = 30% or less;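 note: compound concentration not given in the record; tested on top of an EC20 dose of dopamine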
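PathHunter beta-arrestin assay in DiscoveRx D2 cells. Compounds were added with an EC20 of dopamine (50 nM final) for 90 min at 37 deg C. Luminescence was read 1 h after detection reagent, with 57 uM dopamine as the EC100 control.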
TRPML1 agonist – qHTS for Agonists of the Human Mucolipin Transient Receptor Potential 1 (TRPML1) | AID 624414, 2012 | 410,000 compounds, 0.12% hits | activation, % (concentration not given with the values) | TRPML1-expressing cells, Ca2+ dye fluorescence, FDSS; host cell line not named in the record; reference of the full effect not given here | Mucolipin-1 (Homo sapiens), Q9GZU1; in the data active = activation above about 50%; inconclusive = about 30% to 50%; inactive = below about 30%; note: 0% is about no effect; the text of the record puts the active cut at 80%
Target sequence (Q9GZU1 whole entry, looked up): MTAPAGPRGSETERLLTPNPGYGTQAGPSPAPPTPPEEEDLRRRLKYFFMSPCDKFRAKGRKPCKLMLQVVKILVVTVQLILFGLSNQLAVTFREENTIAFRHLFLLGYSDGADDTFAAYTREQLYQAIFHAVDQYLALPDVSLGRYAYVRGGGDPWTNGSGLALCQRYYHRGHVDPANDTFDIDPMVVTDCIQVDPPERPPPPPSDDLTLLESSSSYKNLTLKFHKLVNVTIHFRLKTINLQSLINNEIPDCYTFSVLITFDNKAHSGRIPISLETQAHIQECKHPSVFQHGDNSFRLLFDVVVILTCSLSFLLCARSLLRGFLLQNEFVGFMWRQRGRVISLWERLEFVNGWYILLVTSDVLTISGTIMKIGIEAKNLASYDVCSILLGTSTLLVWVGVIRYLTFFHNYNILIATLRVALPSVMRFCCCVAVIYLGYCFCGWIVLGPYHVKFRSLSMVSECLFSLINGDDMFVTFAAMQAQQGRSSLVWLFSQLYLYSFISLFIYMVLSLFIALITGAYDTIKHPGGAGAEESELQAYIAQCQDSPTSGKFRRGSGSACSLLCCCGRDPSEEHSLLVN
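TRPML1-DL cells, Tet-induced overnight (~16 h, 37 degrees C), loaded 45-90 min at room temperature with Ca8 no-wash calcium dye plus quencher. FDSS fluorescence: 10 s baseline, compound pin-transfer, 110 s agonist read, then EC80 54-4 (4uM final) and 110 s antagonist read.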
PINK1 modulator – A Quantitative High throughput Screen to Identify Chemical Modulators of PINK1 Expression; AID 624263, 2012; Potency, µM (series often up to 76.6 µM), for inactives: at the top dose activation (PINK1 increase), usual class: activators; 410,000 compounds, 0.2% hits; PINK1 immunofluorescence, high-content cytometry, 24 h; active = well fitted activation curve with a large enough effect; inconclusive = small, poorly fitted or top-dose-only effect; inactive = flat fitted curve, though single readings scatter; cell line not stated here;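 note: potency is the fitted concentration of half-maximal effect; % of control where 0% means no effect; nearly all actives have a fitted effect of over 65% in size; a mitochondrial uncoupler was the plate control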
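Stable cell line treated 24 h with compounds at 5 concentrations (CCCP controls), then fixed and immunostained for PINK1 plus nuclear and cell stains; PINK1 immunofluorescence quantified by laser-scanning microplate cytometry.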
Numbers without * were called inactive; ? = inconclusive; . = not tested or not shown; & = joins results of further samples; [ ] = remark or other dose.

SMILES	CtBP-E1A inh	D2 agonist	Six1-Eya2 inh	D2 potentiator	TRPML1 agonist	PINK1 modulator
CCc1ccc(C2C(C#N)=C(N)N(N(C)C)C3=C2C(=O)CCC3)s1 (stereo unspecified)	-6	0.0	3	4	0.1	0.5%
O=C(CCc1ccccc1)NCc1ccc2c(c1)OCO2	-4	-2.6	5	-5	0.4	-1.0%
CNC(=O)NC(=O)C(NC1CCCc2ccccc21)c1ccccc1 (stereo unspecified)	1	-8.1	2	-7	2.1	0.9%
C/C(Cc1ccccc1)=N\NC(=O)CNC(=O)Cc1ccc(Cl)cc1	-1	-1.1	1	-4	-0.2	1.6%
Cc1cc(C(F)(F)F)n2nc(C)c(-c3ccc(Cl)cc3)c2n1	2	0.0	4	14	2.0	-0.4%
N#C/C(=C(/O)CSc1ncn[nH]1)c1nc2ccccc2[nH]1	-2	0.6	-22	-8	0.0	1.0%
O=C(NCc1ccc2c(c1)OCO2)C1CC(=O)N(C2CCCCCC2)C1 (stereo unspecified)	-8	-3.5	-13	-2	0.0	.
CCNc1nc(NC(C)C)nc(N2CC(=O)N(CC(=O)OCC)C2=N)n1	-10	-2.7	4	3	0.7	-3.1%
COc1ccccc1NS(=O)(=O)c1cccc(C(=O)NCC(c2ccco2)N(C)C)c1 (stereo unspecified)	6	-1.3	5	-38	-0.1	0.6%
CC(c1ccccc1)C1NC(C(=O)O)CS1 (stereo unspecified)	1	-2.8	-9	-4	-1.3	-2.9%
CCN(CC)C(=O)c1cccc(NC(=O)c2ccc3c(=O)n4c(nc3c2)CCC4)c1	-4	-2.8	-18	-1	-0.2	-0.7%
O=C1CN(S(=O)(=O)c2ccc(Cl)cc2)c2ccccc2N1	6	-0.1	3	-1	0.6	4.2%
Cc1cc(Br)ccc1NC(=O)CN1C(=O)C2C3CC(c4ccccc4)C(C3)C2C1=O (stereo unspecified)	1	-3.1	-7	-14	0.5	4.7%
COc1ccc(C(=O)NC(=S)Nc2ccc(N3CCOCC3)cc2)cc1Cl	?	1.3	-29	-9	1.1	1.2%
O=C(O)C1C2C=CC(C2)C1C(=O)NCc1ccoc1 (stereo unspecified)	9	3.4	-6	11	0.0	-1.3%
C=CCN1C(=O)C(O)(CC(=O)c2ccco2)c2cc(Br)ccc21 (stereo unspecified)	1	-5.5	5	-7	0.4	4.3%
CCN(CC)c1ccc(/C=N/NC(=O)c2cnccn2)cc1	-22	-5.0	-7	-1	-0.7	0.9%
CC1Cc2ccccc2N1S(=O)(=O)c1cccc(C(=O)NCCCO)c1 (stereo unspecified)	26	-2.7	18	-3	1.4	0.6%
CCCS(=O)(=O)NC(=O)C1(C)CCN(C(=O)c2snnc2C)C1 (stereo unspecified)	6	-1.1	1	4	-0.1	2.2%
CCC1CN(C(=O)N2CCC(C(=O)NCc3ccc(C)o3)CC2)c2ccccc2O1 (stereo unspecified)	0	-4.5	-3	-26	-0.2&1.6	0.2%&-0.5%
COc1ccc(C(=O)N2CCN(c3ccc(C(C)=O)cc3F)CC2)cc1S(=O)(=O)NC1CC1	15	-0.3	-4	-2	-0.4	-1.7%
CCc1nc2ccccc2c(C(=O)OC2CCCCC2=O)c1C (stereo unspecified)	.	1.2	-3	-4	2.3	0.1%
CCc1ccc(/C=C(\C)C(=O)c2c(C)cc(C)[nH]c2=O)cc1	.	-7.5	-2	-10	0.1	-0.5%
Cc1cccc(N(CC(=O)NC2CCCC2)C(=O)CCC(=O)Nc2nc(C)cs2)c1	1	1.8	-8	-9	0.1	-0.3%
O=C(CC(n1cncn1)C(Cl)(Cl)Cl)c1ccc([N+](=O)[O-])cc1 (stereo unspecified)	.	12	-2	-3	1.0	3.7%

Taken from above:
PINK1 modulator result of CCNc1nc(NC(C)C)nc(N2CC(=O)N(CC(=O)OCC)C2=N)n1 : -3.1%
Six1-Eya2 inh result of Cc1cc(C(F)(F)F)n2nc(C)c(-c3ccc(Cl)cc3)c2n1 : 4

Next section.
SMILES	CtBP-E1A inh	D2 agonist	Six1-Eya2 inh	D2 potentiator	TRPML1 agonist	PINK1 modulator
N#Cc1c(-c2ccco2)cc(-c2ccc(F)cc2)nc1N	-6	2.3	-24	-4	0.8	8.2%
COc1ccccc1CNC(=O)[C@H](NC(=O)C1CCN(C(=O)[C@@H](N)CCSC)CC1)C(C)C	-1	-3.4	1	-29	.	0.4%
CC(=O)Nc1ccc2c(c1)CCC2=O	-8	1.9	5	-11	0.3	?
CCOC(=O)c1ccc(N=Cc2c(O)c3ccccc3oc2=O)cc1	3	-2.3	8	-2	2.5	0.9%
CCOc1ccc(NCc2cccn2-c2nnc(N3CCC(C(=O)NCCCN4CC(C)CC(C)C4)CC3)s2)cc1 (stereo unspecified)	?	-2.8	-12	-4	0.1	-0.3%
CCn1c(C(=O)N2CCC(Cc3ccccc3)CC2)cc2sccc21	4	0.5	-23	-4	4.4	25%[38.3 µM]
Cc1sc2ncn(CC(=O)N3CCN(c4ccccn4)CC3)c(=O)c2c1S(=O)(=O)N1CCCCC1	4	-3.1	2	-5	-0.1	2.0%
O=C(Nc1ccc(Cl)cc1)c1csc([C@@H]2C[C@H](O)[C@@H](CO)O2)n1	3	-1.4	2	-3	-0.4	3.5%
CCOC(=O)c1c(C)nc2c(c1-c1cc(OC)c(OC)c(OC)c1)C(=O)c1ccccc1-2	-1	-0.5	-1	3	-0.8	1.6%
O=C(CCNS(=O)(=O)c1c(Cl)cccc1Cl)OCC(=O)c1ccccc1F	28	-2.2	2	-27	1.6	-0.8%
COc1ccc(S(=O)(=O)N2CCCC2C(=O)Nn2cnnc2)cc1 (stereo unspecified)	6	-0.2	7	10	-0.2	-0.6%
COc1ccc2[nH]c3c(c2c1)CCN1C(=O)C(CC(=O)NCCc2ccccn2)C[C@H](C(=O)N(C(C)C)C(C)C)[C@@]31C (stereo partly specified)	1	0.5	5	.	-0.8	-0.5%
CN(c1cccc(NC(=O)c2ccc(C(C)(C)C)cc2)c1)S(C)(=O)=O	-10	1.4	4	-3	0.2	-0.2%
CN1C(=O)/C(=C/c2ccc(OCc3ccccc3F)cc2)N(C)C1=S	.	-3.2	10	1	.	12%
O=C(CCc1nc(-c2ccccc2)no1)NCc1ccco1	-7	-2.1	-8	-2	1.2	5.3%
O=S(=O)(NCc1ccc(Cl)cc1)c1cnc[nH]1	0	-3.7	7	-9	-0.2	-0.7%
COc1ccc(NC(=O)CCNC(=O)C2CCN(S(=O)(=O)c3ccc(OC)cc3)CC2)cc1	0	-0.2	-2	1	0.0	1.8%
O=C(CN1C(=O)NC2(CCCCCC2)C1=O)N1CCN(S(=O)(=O)c2ccccc2)CC1	.	-2.4	6	1	3.1	-0.3%
N#Cc1cc2c(nc1SCC(=O)N1CCCCC1)CCCCC2	4	-1.7	-3	-13	-0.1	-0.4%
NC(=O)C1CCN(C(=O)Cc2ccsc2)CC1	7	-1.6	4	3	0.5	-1.2%
CCOC(=O)N1CCN(c2nc3ccccc3nc2C(C#N)C(=O)NCCc2ccccc2)CC1 (stereo unspecified)	2	-6.4	6	-10	0.0	-0.9%
Cc1ccc(C(=O)NCCc2nnc(SCC(=O)Nc3nc(-c4ccccc4)cs3)n2C)cc1	2	-2.9	3	-5	0.5	11%[38.3 µM]
CCOc1ccc(Oc2c(/C=N/NC(=O)C3CC3)c(C)nn2-c2ccccc2)cc1	-9	0.9	-7	-15	1.0	14%
COc1ccc(-n2cnc3cc(NCc4ccco4)ccc32)cc1	-12	-2.4	-21	1	0.7	2.2%[38.3 µM]
Cc1nnc(N2CCN(Cc3ccccc3)CC2)[nH]c1=O	25	-2.3	8	-2	-0.2	1.0%
SMILES	CtBP-E1A inh	D2 agonist	Six1-Eya2 inh	D2 potentiator	TRPML1 agonist	PINK1 modulator
CC1Cn2c(nnc2-c2cc3ccccc3cc2O)S1 (stereo unspecified)	8	1.6	-7	5	0.9	-3.4%[38.3 µM]
CC(C)C(NC(=O)OCc1ccccc1)C(=O)NCc1ccc(C(=O)O)cc1 (stereo unspecified)	13	-3.3	0	-3	0.9	-0.9%
CC1(C)C2([N+](=O)[O-])CN(CCO)CC1([N+](=O)[O-])CN(CCO)C2	-3	-0.1	13	-3	-0.3	-1.6%
O=C(c1cc(C2CCCCN2S(=O)(=O)c2ccccc2)on1)N1CCOCC1 (stereo unspecified)	3	9.2	-4	1	-0.7	1.0%
CC(=O)c1ccc(NC(=O)COC(=O)CC2CC3CCC2C3)cc1 (stereo unspecified)	-19	0.5	-19	1	1.2	-0.2%
C[C@@H]1CCC[C@@]2(O[C@H](CCO)C[C@H](O)[C@H]2O)O1	7	-7.2	-1	-7	-0.5	2.4%
CC(Oc1ccc(-c2nnco2)cc1)C(=O)N1CCOCC1 (stereo unspecified)	11	-0.9	0	-28	0.1	-0.7%
CCN(C(=O)CSc1nc2ccccc2n1CCc1ccccc1)C1CCS(=O)(=O)C1 (stereo unspecified)	-8	-4.1	-6	-4	1.2	4.7%
CC12CCC(=O)N1C(C(=O)NCCN1C(=O)S/C(=C\c3ccc(F)cc3)C1=O)CS2 (stereo unspecified)	-3	2.3	-2	?	-1.0	1.7%
CN1CCN(C(=O)c2cc(=O)c3cc(Cl)cc(Cl)c3o2)CC1	-2	-0.3	-8	3	0.0	1.6%
C[C@H](NC(=O)C1CC(=O)N(c2ccc3c(c2)OCO3)C1)C(=O)NC1CCCCC1 (stereo partly specified)	-5	1.8	7	-6	0.4	0.1%
O=C(C1CC(=O)N(C2CCCCC2)C1)N1CCN(c2cccc(C(F)(F)F)c2)CC1 (stereo unspecified)	1	1.1	0	-3	-0.6	0.9%
NC(Cc1c[nH]c2ccccc12)C(=O)NCc1ccccc1 (stereo unspecified)	-7	0.1	-6	-2	-0.5	0.2%
Cc1oc(-c2ccc(-c3ccccc3)cc2)nc1CN1CCN(CC(=O)N(C)C)CC1	.	1.2	0	-7	0.5	0.8%
O=C(Nc1cc(Cl)ccc1F)C1=COCCO1	2	-1.9	-5	-5	-0.3	0.2%
Cc1cc(C)c(C#N)c(SCc2nnc(-c3ccccc3)o2)n1	12	-1.6	9	-10	0.9	7.2%

Single records (already shown):
Cc1cc(C)c(C#N)c(SCc2nnc(-c3ccccc3)o2)n1 reads CtBP-E1A inh = 12; D2 agonist = -1.6; Six1-Eya2 inh = 9; D2 potentiator = -10; TRPML1 agonist = 0.9; PINK1 modulator = 7.2%
CC(C)C(NC(=O)OCc1ccccc1)C(=O)NCc1ccc(C(=O)O)cc1 (stereo unspecified) reads CtBP-E1A inh = 13; D2 agonist = -3.3; Six1-Eya2 inh = 0; D2 potentiator = -3; TRPML1 agonist = 0.9; PINK1 modulator = -0.9%
CC(Oc1ccc(-c2nnco2)cc1)C(=O)N1CCOCC1 (stereo unspecified) reads CtBP-E1A inh = 11; D2 agonist = -0.9; Six1-Eya2 inh = 0; D2 potentiator = -28; TRPML1 agonist = 0.1; PINK1 modulator = -0.7%

Outcome played no part in choosing rows; 1.3% or so of the library scored in one or more.
